ALR H2O2 inh – inhibitors of human sulfhydryl oxidase ALR. P55789. inhibition, % (no concentration beside the values). purified ALR, DTT oxidation, H2O2 HRP-luminol luminescence. 290,000 compounds, 3.8% hits. AID 485317;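 active means mean and each replicate at 75% or more; inconclusive means only one of the two met; inactive means neither met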;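 further: stock transfer was 7.5 nL into about 7.5 µL; 0% = neutral wells and 100% = wells with inactivated enzyme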
Target sequence (P55789 whole entry, looked up): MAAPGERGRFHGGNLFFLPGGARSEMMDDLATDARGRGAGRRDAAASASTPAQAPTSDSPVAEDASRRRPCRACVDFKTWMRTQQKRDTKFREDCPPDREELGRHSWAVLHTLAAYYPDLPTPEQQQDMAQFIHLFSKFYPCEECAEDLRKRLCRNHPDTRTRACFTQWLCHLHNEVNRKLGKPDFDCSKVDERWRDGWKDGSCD
FGF22 binding – FGF22 (human) thermal shift binding. 340,000 compounds, 1.5% hits. AID 651658. recombinant FGF22 thermal shift, SYPRO orange fluorescence; percent of sucrose octasulfate shift, DMSO zero. calls only at 9.99 µM;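 active means melting point raised past a set limit in the mean and every replicate; inconclusive means no clear call; three in four hits are not shown here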
Target sequence (Q9HCT0 whole entry, looked up): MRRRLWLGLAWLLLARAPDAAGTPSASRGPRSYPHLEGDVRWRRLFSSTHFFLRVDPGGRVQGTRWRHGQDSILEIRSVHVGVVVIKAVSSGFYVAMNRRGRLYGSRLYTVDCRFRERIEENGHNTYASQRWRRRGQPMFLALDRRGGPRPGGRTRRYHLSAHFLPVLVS
Ecoli rRNA inh – inhibits bacterial ribosomal RNA function over humanized ribosomes; GFP signal change (wild-type ribosome), % (test concentration not listed); E. coli WT GFP vs humanized-ribosome RFP mutants, fluorescence, 24 h; active compounds read low; DMSO median 0, no signal -100; 350,000 compounds, 1.6% hits;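 active means significant combined selectivity score with lowered wild-type GFP, culture density cut under 30%, mutant RFP and density less affected; inactive means any of these conditions unmet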; further: one replicate is shown; some compounds called inactive have numbers as strong as hits
Vif A3G – HIV-1 Vif–A3G interaction blockers – biochemical, TR-FRET, GST-Vif 1-94, biotin-A3G peptide, dose response retest, primary screen (AID 1117319); TR-FRET GST-Vif / biotin-A3G peptide binding; higher % means a stronger effect; test concentration not given here; strong numbers were not always called active; one-dose inhibition, %; IC50 in µM for titrated hits; 260,000 compounds, 0.57% hits;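 active means above the screen mean plus three standard deviations and confirmed in dose response; inconclusive means results disagree or hit not tested in dose response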;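 further: Vif residues 1-94 fused to GST binding biotinylated APOBEC3G peptide 110-148; 0% = full assay without inhibitor and 100% = GST in place of GST-Vif; retest series ran down from 100 µM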
Ecoli growth – inhibitors of Escherichia coli growth. OD600, 23 h; active compounds read low. OD600 absorbance (no concentration beside the values). 330,000 compounds, 0.21% hits. AID 1053175;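 active means OD600 absorbance below the run mean of sample wells minus 3.6 SD, in any replicate, cut at about 0.56 in these data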;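 further: stock transfer was 300 nL into about 60 µL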
AF4-AF9 inh – inhibitors of human MLL-AF4/AF9 interaction; P42568; AlphaScreen, biotin-AF4 peptide binding to FLAG-AF9; inhibition, % at 10 µM; 350,000 compounds, 0.47% hits; AID 651704;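 active means every replicate reaching a set inhibition limit, whatever the replicate mean, cut at about 25% in these data; inconclusive means mean inhibition reaches that limit but some replicates miss it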;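 further: 0% = plate neutral control median and 100% = total signal loss; the record names both 10 and 1 µM as test concentration; the first replicate is given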
Target sequence (P42568 whole entry, looked up): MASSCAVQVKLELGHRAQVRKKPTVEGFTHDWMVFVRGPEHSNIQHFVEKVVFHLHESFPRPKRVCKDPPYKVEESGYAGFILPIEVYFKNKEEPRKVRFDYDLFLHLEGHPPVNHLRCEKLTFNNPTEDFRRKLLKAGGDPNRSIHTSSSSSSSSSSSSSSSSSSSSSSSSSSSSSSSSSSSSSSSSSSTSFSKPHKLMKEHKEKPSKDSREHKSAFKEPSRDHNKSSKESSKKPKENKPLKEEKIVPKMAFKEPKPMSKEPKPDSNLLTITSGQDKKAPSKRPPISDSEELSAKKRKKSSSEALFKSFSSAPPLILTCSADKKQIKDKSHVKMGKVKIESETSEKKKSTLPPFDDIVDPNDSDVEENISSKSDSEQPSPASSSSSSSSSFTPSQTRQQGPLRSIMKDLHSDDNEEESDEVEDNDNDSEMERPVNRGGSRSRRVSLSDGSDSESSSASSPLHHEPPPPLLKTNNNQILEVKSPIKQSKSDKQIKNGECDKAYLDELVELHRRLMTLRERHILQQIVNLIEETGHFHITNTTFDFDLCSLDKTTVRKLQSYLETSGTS
HNF4A DNA FP – change in binding of human HNF4 alpha to DNA; P41235; 360,000 compounds, 0.3% hits; activity change, % at 10 µM; HNF4a-FITC DNA binding, fluorescence polarization, 1 h; AID 1224865; in the data active means activity change above about 30%, passing the limit was not always enough;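 further: controls were the assay level and a saturating level of protein; the project sought stronger binding though the title names inhibitors; some compounds called inactive have numbers as strong as hits; positive values seem to mean higher polarization but the record does not say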
Ecoli rRNA inh OD600 – second read-out of Ecoli rRNA inh, no call of its own (marks repeat the call); OD600 change, %; measured here: OD600 growth;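 optical density of the mix in the first replicate; 0 = DMSO median and -100 = no signal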
Ecoli rRNA inh RFP – further read-out of Ecoli rRNA inh, marked with its call; RFP signal change, %; measured here: RFP humanized mutant strains;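 first replicate; 0 = DMSO median and -100 = no signal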
Numbers without * were called inactive; i = inactive; ? = inconclusive; / = not tested or not shown; & = joins results of further samples. This is a subset; the hit share may differ from the screen's.

smiles	ALR H2O2 inh	FGF22 binding	Ecoli rRNA inh	Ecoli rRNA inh OD600	Ecoli rRNA inh RFP	Vif A3G	Ecoli growth	AF4-AF9 inh	HNF4A DNA FP
NC(Cc1ccc(F)cc1)c1csc(Nc2ccc(S(N)(=O)=O)cc2)n1 (centres undefined)	/	i	1.9	0.7	0.4	/	/	0.2	2.4
CCOC(=O)N1CCN(c2cc(=O)n(-c3ccccc3C)c(=O)[nH]2)CC1	10.7	i	0.5	5.0	2.7	6.9%	0.681	-2.4	3.3
OCC[C@H]1C[C@@H](O)[C@H](O)[C@]2(CCc3ccccc3O2)O1	2.2	i	4.6	1.7	-2.0	/	/	-9.5	1.2
O=C(COC(=O)Cc1cccc(F)c1)NC(=O)NC1CCCCC1	/	i	4.2	4.5	-1.8	1.9%	0.71	-0.5	-6.5
CCc1cccc(C)c1NC(=S)N(CCN(C)C)C(C)c1cccnc1 (centres undefined)	5.8	i	15.0	10.3	-11.9	-3.0%	0.68	-4.4	1.5
COc1ccc(N2CCN(c3oc(Cc4cccc5ccccc45)nc3C#N)CC2)cc1	-4.5	/	/	/	/	-6.7%	0.789	/	6.3
CN(Cc1ccccc1)C(=O)CCC(=O)N(C)Cc1ccccc1	-2.6	/	/	/	/	0.4%	0.732	/	-0.1
O=C(CS(=O)(=O)c1ccccc1)N1CCCCC1	-17.6	i	-0.3	3.5	-3.5	/	0.673	-4.0	3.2
CCc1ccc(Nc2n[n+](-c3ccccc3)c(-c3cccc(Cl)c3Cl)s2)cc1	-4.3	i	-1.0	3.2	11.4	/	0.711	-0.7	2.2
Cn1ccnc1COc1ccc(C=O)cc1	-5.7	i	2.4	7.7	1.2	/	0.665	-2.7	4.2
O=C(O)CSc1nc2sc3c(c2c(=O)n1Cc1ccccc1)CCCCC3	9.8	i	3.0	12.3	-3.3	-0.3%	0.644	0.2	-4.7
COc1ccc(S(=O)(=O)N(C)C[C@H]2OCCCC[C@H](C)Oc3ccc(NC(=O)Cc4ccccc4)cc3C(=O)N([C@@H](C)CO)C[C@H]2C)cc1	/	i	-0.2	-2.3	0.2	/	/	-2.1	/
O=C(C[C@H]1CC[C@@H]2[C@H](COC[C@H](O)CN2S(=O)(=O)c2ccccc2)O1)NCc1ccc2c(c1)OCO2	/	i	3.2	-1.3	-2.6	/	/	4.7	/
Cc1cccc(CSc2nnc(-c3ccco3)n2C)c1	-8.1	/	/	/	/	-6.0%	0.66	/	1.2
CCCn1nc(C(=O)NNC(=O)C2CSC3(C)CCC(=O)N23)c2ccccc2c1=O (centres undefined)	0.4	i	-2.6	-2.0	-1.7	-1.1%	0.633	-0.2	4.0
CCOc1cc(CNCCO)cc(Br)c1OCc1ccccc1	-1.5	/	-17.8	-41.5	27.1	1.7%	0.583	4.2	-1.5
CC(C)CC#Cc1cnc2c(c1)C(=O)N([C@H](C)CO)C[C@@H](C)[C@@H](CN(C)C(=O)Cc1cccnc1)O2	/	i	-0.6	4.3	0.3	/	/	-3.4	/
CC(C)C(NC(=O)c1ccc(F)cc1)C(=O)Nc1cccnc1 (centres undefined)	-2.6	i	6.1	4.0	-0.2	19.9%	0.723	-0.9	-2.3
CCCCNc1c(C(=O)OCC)c(=O)[nH]c2ccccc12	-0.7	/	/	/	/	-0.2%	0.758	/	2.4
CCCn1c(=O)c(C(=O)NCc2ccco2)c(O)c2ccccc21	2.6	i	15.0	11.1	1.1	/	0.701	-1.4	-4.5
COc1ccc(CNC(=O)C[C@H]2C[C@@H]3c4cc(N(C)C)ccc4O[C@@H]3[C@H](CO)O2)cc1	/	i	0.1	-1.8	0.0	/	/	1.1	/
COc1ccc(N2CCN(C(=O)CCN3C(=S)NC(C)(C)CC3C)CC2)cc1 (centres undefined)	88.4*	i	16.3	20.6	3.0	9.3%	0.704	1.1	-2.9
Cc1ccc(NC(=O)CN(C)C(=O)CSc2ccc3c(c2)OCCO3)cc1	7.3	i	-5.7	-10.2	-2.4	-9.3%	0.684	-11.1	-0.8
C[C@@H]1CN([C@@H](C)CO)C(=O)c2cc(NC(=O)Nc3ccccc3)ccc2O[C@@H]1CN(C)CC1CCCCC1	/	i	2.7	-1.3	2.5	/	/	4.5	/
Cc1cc(C)n2nc(S(=O)(=O)N(C)c3ccccc3)nc2n1	-9.8	i	9.8	5.4	-0.6	1.1%	0.774	2.0	-0.2
O=C(CSc1nc2c(c(=O)n1-c1ccc(Br)cc1)SCC2)Nc1nccs1	98.5*	/	/	/	/	?	0.72	/	-1.0
C[C@@H]1CN([C@H](C)CO)C(=O)Cc2cc(NC(=O)Nc3cccc4ccccc34)ccc2O[C@@H]1CN(C)CC1CC1	/	i	5.1	3.6	2.5	/	/	2.2	/
Brc1cccc(OCCOCCn2ccnc2)c1	/	/	/	/	/	-1.0%	0.658	/	0.7
COc1cc2[nH]c(=O)n(CCC(=O)NCCC(C)C)c(=O)c2cc1OC	-9.7	/	/	/	/	0.4%	0.754	/	-1.7
C=CCN(CC=C)C(=O)Nc1ccc2nc(C)sc2c1	-7.9	i	-3.0	-6.9	-6.3	-6.8%	0.719	1.6	2.3

Given with values ahead of the structure: 2 of the compounds above
ALR H2O2 inh	FGF22 binding	Ecoli rRNA inh	Ecoli rRNA inh OD600	Ecoli rRNA inh RFP	Vif A3G	Ecoli growth	AF4-AF9 inh	HNF4A DNA FP	Molecule
5.8	i	15.0	10.3	-11.9	-3.0%	0.68	-4.4	1.5	CCc1cccc(C)c1NC(=S)N(CCN(C)C)C(C)c1cccnc1 (centres undefined)
98.5*	/	/	/	/	?	0.72	/	-1.0	O=C(CSc1nc2c(c(=O)n1-c1ccc(Br)cc1)SCC2)Nc1nccs1

Next results.
smiles	ALR H2O2 inh	FGF22 binding	Ecoli rRNA inh	Ecoli rRNA inh OD600	Ecoli rRNA inh RFP	Vif A3G	Ecoli growth	AF4-AF9 inh	HNF4A DNA FP
N#CCSc1ccccc1NC(=O)COC(=O)CCN1C(=O)C2CC=CCC2C1=O (centres undefined)	2.7	i	/	/	/	-3.9%	0.649	0.1	3.0
CCCCOC(=O)Nc1nc(C)c(C(=O)OCC)s1	-31.2	/	/	/	/	16.4%	/	/	1.4
CCc1ccc(C2=NN(CCC(=O)NC(C)c3ccc4c(c3)OCCO4)C(=O)CC2)cc1 (centres undefined)	-1.1	i	4.0	-0.4	-0.5	18.4%	0.695	-6.4	-3.2
CCSCc1nnc(SCC(=O)Nc2ccc(OC)cc2)n1C	-5.8	i	17.4	7.6	1.6	5.4%	0.676	-1.4	-3.2
COc1ccc(NC(=O)Nc2cccc3c2O[C@@H](CN(C)S(=O)(=O)c2cccs2)[C@H](C)CN([C@@H](C)CO)C3=O)cc1	/	i	-3.6	-4.2	0.4	/	/	-3.7	/
C[C@H]1CCCCO[C@@H](CN(C)C(=O)NC2CCCCC2)[C@@H](C)CN([C@@H](C)CO)C(=O)c2cc(NS(=O)(=O)c3cn(C)cn3)ccc2O1	/	i	1.0	4.3	0.7	/	/	-2.0	/
CCc1ccc2nc(N3CCN(C(=O)C(C)(C)C)CC3)sc2c1	-1.0	i	-2.6	4.5	-0.3	-5.9%	0.727	0.3	2.2
CCn1c(=O)c2cc(C(=O)NCCOC)sc2c2ccccc21	0.1	i	-7.4	-12.3	0.8	-7.5%	0.66	-4.2	-5.8
CCc1nnc(NC(=O)CN2C(=O)/C(=C/c3cc(OC)c(OC)c(OC)c3)SC2=S)s1	/	i	5.0	0.4	6.8	9.9%	0.709	-8.4	2.6
CS(=O)(=O)Nc1ccc2c(c1)[C@H]1C[C@H](CC(=O)NCc3ccccn3)O[C@H](CO)[C@H]1O2	/	i	9.0	11.0	0.3	/	/	-0.9	/
C[C@H](CO)N1C[C@H](C)[C@@H](CN(C)Cc2ccc(C(=O)O)cc2)OCc2cn(nn2)CCCC1=O	/	i	-0.4	2.6	-2.2	/	/	-0.4	/
COc1cccc(C(=O)Cn2c(N3CCCCC3)nc3c2c(=O)n(C)c(=O)n3C)c1	0.0	/	/	/	/	-1.9%	0.732	/	2.2
O=C(COC(=O)[C@H](Cc1ccccc1)NC(=O)c1ccco1)Nc1ccccc1	34.6	i	-1.5	-4.2	2.4	/	0.661	-1.7	2.1
CSc1nc(C)c(C(=O)Nc2ccccc2)c(-c2ccco2)c1C#N	-3.8	/	-11.5	-10.6	-4.7	15.0%	0.654	-1.3	-1.8
O=C(Nc1ccc(F)cc1)N1CCN(CCc2ccccc2)CC1	/	i	8.2	7.9	1.9	-8.7%	0.631	-2.5	0.3
COc1ccc(CCNC(=O)CCc2cn(C)c3ccccc23)c(OC)c1OC	-2.3	i	1.3	-2.0	2.2	/	0.625	2.8	2.6
O=C(c1ccco1)N1CCN(C(=S)NC2CC3CCC2C3)CC1 (centres undefined)	1.0	i	-6.4	-5.4	-3.4	-0.2%	0.718	-5.6	0.0
CN1OC(CC(=O)O)N(c2ccc(Cl)cc2)C1=O (centres undefined)	/	/	/	/	/	7.6%	0.723	/	5.8
COC(=O)C1=NNC(C(=O)c2ccco2)C1c1ccc(OC)cc1 (centres undefined)	/	i	10.1	7.9	-3.6	12.2%	0.679	-0.7	-0.8
COc1ccc(-c2noc(CN(C)Cc3ccc(C)o3)n2)cc1	-2.6	i	19.6	-6.9	-8.1	-6.8%	0.716	-3.9	4.9
C[C@H](CO)N1C[C@H](C)[C@H](CN(C)Cc2ccc3c(c2)OCO3)Oc2ccc(NC(=O)CCCCCC(=O)Nc3ccccc3N)cc2C1=O	/	i	1.7	-9.5	0.2	/	/	0.0	/
O=C(CSc1nncs1)NC(=O)NC1CCCC1	0.9	i	4.9	-1.4	-2.4	-10.3%	0.716	-1.9	2.6
CO[C@H]1CN(C)C(=O)c2cc(NC(C)=O)ccc2OC[C@@H](C)N(C(=O)c2ccncc2)C[C@H]1C	/	i	2.2	-0.5	-1.5	/	/	2.7	/
CCc1ccc(CN2CCC(N3CCC(C(=O)N4CCCC4)CC3)CC2)o1	-37.0	i	12.6	16.4	-2.1	1.5%	0.71	-4.6	0.8
C[C@H](O)C#Cc1ccc([C@@H]2[C@H](CO)N3CCCCN(CC4CC4)C[C@@H]23)cc1	/	i	0.8	-1.8	0.7	/	/	12.9	/
O=C(O)C1CC=CCC1C(=O)NCCCN1CCCC1=O (centres undefined)	-2.6	i	11.9	11.6	0.2	/	0.727	0.0	-0.4
CCCn1nnc(NC(=O)c2ccc(F)cc2)n1	6.9	/	/	/	/	-1.3%	0.776	/	-0.9
COc1cc(CCC(=O)O)on1	0.4	i	3.5	6.1	-2.2	/	0.674	-1.2	9.4
COCC#Cc1ccc2c(c1)O[C@@H](CN(C)C(=O)C1CC1)[C@@H](C)CN([C@H](C)CO)S2(=O)=O	/	i	1.4	4.1	-0.5	/	/	-3.0	/
COc1ccccc1-c1nnc(C2CCN(S(=O)(=O)c3cccc([N+](=O)[O-])c3)CC2)o1	-12.5	i	-22.5*	-8.0*	0.2*	/	0.676	6.5	2.6
COc1cccc(-c2ccc3c(c2)O[C@@H](CN(C)Cc2cncnc2)[C@@H](C)CN([C@H](C)CO)S3(=O)=O)c1	/	i	1.3&-0.4	-8.2&-5.1	3.1&1.7	3.4%	/	-0.7&0.9&1.3	1.2
Cc1cc(N2CCOCC2)n2ncc(-c3ccccc3Cl)c2n1	-8.5	i	7.1	12.8	-1.0	1.4%	0.684	-0.3	-0.3

Bioassay records from PubChem BioAssay.
